Vaccinia pol inh: vaccinia E9 polymerase processive synthesis inhibitors, primary screen, biochemical, absorbance. Vaccinia virus DNA polymerase (E9) processive complex. in vitro processive DNA synthesis, absorbance read-out; stronger effect = lower value; some inactives read as strong as hits. normalized absorbance, % (no concentration beside the values). 46,000 tested, 0.94% active. AID 493162, 2011;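 active = replicate mean up to 90% and picked by the depositor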;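 also: 100% = median of the test wells of a plate; 100 nL library stock went into each well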
Numbers without * were called inactive. The list is partial, so the mix of outcomes need not match the whole.

A first look:
SMILES	Vaccinia pol inh
O=C(NC(Sc1ncccn1)C(=O)c1ccccc1)c1ccccc1 (stereo not drawn)	101
O=C(/C=C/c1ccc(Br)o1)OCC(=O)N1CCc2ccccc21	98
c1ccc(CSCc2nc3ccccc3[nH]2)cc1	106
O=C(/C=C/c1ccco1)Nc1ccc(Oc2ccccc2)cc1	109
CCc1noc2c1/C(=N\O)CC(c1ccccc1)C2 (stereo not drawn)	88
CCc1cc2c(cc(C(=O)OC)n2Cc2ccc(Br)cc2F)s1	101
Cc1ccc(S(=O)(=O)N(CCc2ccccc2)CC(=O)Nc2ccc(C(C)C)cc2)cc1	100
O=C(Nc1nc2ccc(Cl)cc2s1)c1ccco1	98
Cc1ccc2[nH]c(=O)c(CN(C(=O)c3cccs3)C3CCCCC3)cc2c1	96
Cc1cc(=O)oc2c(CN3CCCCC3)c(O)ccc12	100

The listing, previewed entries included:
SMILES	Vaccinia pol inh
O=C(NC(Sc1ncccn1)C(=O)c1ccccc1)c1ccccc1 (stereo not drawn)	101
O=C(/C=C/c1ccc(Br)o1)OCC(=O)N1CCc2ccccc21	98
c1ccc(CSCc2nc3ccccc3[nH]2)cc1	106
O=C(/C=C/c1ccco1)Nc1ccc(Oc2ccccc2)cc1	109
CCc1noc2c1/C(=N\O)CC(c1ccccc1)C2 (stereo not drawn)	88
CCc1cc2c(cc(C(=O)OC)n2Cc2ccc(Br)cc2F)s1	101
Cc1ccc(S(=O)(=O)N(CCc2ccccc2)CC(=O)Nc2ccc(C(C)C)cc2)cc1	100
O=C(Nc1nc2ccc(Cl)cc2s1)c1ccco1	98
Cc1ccc2[nH]c(=O)c(CN(C(=O)c3cccs3)C3CCCCC3)cc2c1	96
Cc1cc(=O)oc2c(CN3CCCCC3)c(O)ccc12	100
C=CCNC(=O)N1CC(Oc2ccc(Cl)cc2)C1	100
O=C(NC1CCCCC1)c1ccccc1NS(=O)(=O)c1ccc(F)c(F)c1	98
Clc1ccc(C2CC(C3CC3)=NN2c2ccccc2)cc1 (stereo not drawn)	100
COc1cc[n+](OC(=O)N2CCCCC2)c(C)c1	100
Cc1nn(-c2ccc(Cl)cc2)c2sc(C(=O)NC3CCC(O)CC3)cc12 (stereo not drawn)	93
CC(C)Oc1ccc(C(=O)NC(CC(=O)O)c2ccccc2)cc1 (stereo not drawn)	101
O=C(O)c1c2c(nc3ccccc13)CCC(c1ccccc1)C2 (stereo not drawn)	100
COc1ccc(OCc2cn3cccnc3n2)cc1	101
CC(C)(C)NC1CCCCC1NS(=O)(=O)c1ccccc1 (stereo not drawn)	103
Cc1cc(O)c(C(C)C)cc1NS(=O)(=O)c1ccccc1	93
Nc1cc(-c2ccccc2)nn1S(=O)(=O)c1ccccc1	102
c1ccc(C2CC(c3cccs3)n3nnnc3N2)cc1 (stereo not drawn)	100
CN1OC(COC(=O)c2cc(Cl)cc(Cl)c2)CC12C1CC3CC(C1)CC2C3 (stereo not drawn)	103
Oc1cccc(-c2nc3ccc4ccccc4c3c3c2CCCC3)c1	100
O=C(Nc1ccc2c(c1)OCO2)C(=S)NCc1ccccc1	89
Cc1ccc(C(=O)N/C(=C\c2cn(-c3ccccc3)nc2-c2ccccc2)C(=O)O)cc1	92
CN(C)c1scc(-c2ccc(Cl)cc2)c1C#N	108
CC(=O)N1CCCc2cc(S(=O)(=O)NC3CCCCC3)ccc21	105
CCOc1cc(C(=S)N2CCOCC2)ccc1OC	100
CC1(C)OC(=O)C(=Cc2cccn2-c2ccc(S(N)(=O)=O)cc2)C(=O)O1	100
CCOc1ccc(-c2cc(O)cc3sc(=O)oc23)cc1	89
Oc1c(Br)cc(Br)cc1C=Nc1ccccc1F	81*
Cc1nn(-c2ccccc2)nc1CNS(=O)(=O)c1ccc2c(c1)OCCN2C	102
O=C(COC(=O)Cc1cccc(C(F)(F)F)c1)NC1CCCCC1	98
CCSC1=N/C(=C\c2cccc(F)c2)C(=O)S1	100
CC(Oc1ccc(Cl)cc1Cl)C(=O)NC1=NN(c2ccccc2)C(=O)C1 (stereo not drawn)	100
CC1=Nc2cc(C(=O)N(C)Cc3ccccc3)ccc2Sc2ccc(Cl)cc21	100
COc1ccc(OC)c2[nH]c(C(F)(F)F)nc12	120
CCOc1ccc(Nc2nc(N)nc(CN3CC(C)CC(C)C3)n2)cc1 (stereo not drawn)	84
CCN(CC)C(=O)C1c2ccccc2C(=O)N2CCc3cc(OC)c(OC)cc3C12 (stereo not drawn)	104

Arranged by formula weight (largest number first): part of the list above
SMILES	Vaccinia pol inh
Cc1ccc(S(=O)(=O)N(CCc2ccccc2)CC(=O)Nc2ccc(C(C)C)cc2)cc1	100
CN1OC(COC(=O)c2cc(Cl)cc(Cl)c2)CC12C1CC3CC(C1)CC2C3 (stereo not drawn)	103
CCN(CC)C(=O)C1c2ccccc2C(=O)N2CCc3cc(OC)c(OC)cc3C12 (stereo not drawn)	104
CC1=Nc2cc(C(=O)N(C)Cc3ccccc3)ccc2Sc2ccc(Cl)cc21	100
O=C(NC1CCCCC1)c1ccccc1NS(=O)(=O)c1ccc(F)c(F)c1	98
CC1(C)OC(=O)C(=Cc2cccn2-c2ccc(S(N)(=O)=O)cc2)C(=O)O1	100
Oc1c(Br)cc(Br)cc1C=Nc1ccccc1F	81*
CCOc1ccc(Nc2nc(N)nc(CN3CC(C)CC(C)C3)n2)cc1 (stereo not drawn)	84
CC(=O)N1CCCc2cc(S(=O)(=O)NC3CCCCC3)ccc21	105
Oc1cccc(-c2nc3ccc4ccccc4c3c3c2CCCC3)c1	100
Cc1cc(O)c(C(C)C)cc1NS(=O)(=O)c1ccccc1	93
CCSC1=N/C(=C\c2cccc(F)c2)C(=O)S1	100

Additional records.
SMILES	Vaccinia pol inh
Cc1ccc(S(=O)(=O)CCN2CCN(c3ccccc3)CC2)cc1	100
CC(C)(C)c1cc(C(C)(C)C)n(-c2ccc(C(=O)NN)cc2)n1	100
CC(=O)Nc1nonc1NC1=CC(=O)CC(C)(C)C1	101
O=C(CCN1C(=O)c2ccccc2S1(=O)=O)Nc1nc(-c2ccccc2)cs1	100
COC(CNC(=O)c1cc2c(s1)CSC2)OC	98
CCOc1ccc(Br)cc1S(N)(=O)=O	98
O=C1NC(=O)C(=Cc2cccc3ccccc23)C(=O)N1	88
Fc1cc(Br)ccc1N=Cc1ccncc1	105
COc1ccc2nc3oc(C(=O)Nc4ccc(C(C)C)cc4)cc3cc2c1	99
O=C(O)CCc1oc2cc(O)ccc2c(=O)c1-c1nc2ccccc2[nH]1	100
c1ccc(-c2n[nH]c3ccccc23)cc1	91
Cc1cccc(N(C)C(=O)c2cccc3c2SCCC3=O)c1	99
O=C(COc1ccccc1)OC(C(=O)c1ccccc1)c1ccccc1 (stereo not drawn)	101
O=C(Nc1ccccc1)Nc1cccc2ccccc12	100
COc1ccccc1-c1nnc(-c2ccccc2O)o1	100
CSc1nnc(SC)n1CCNC(=O)c1c(Cl)cccc1Cl	105
O=C(O)c1cccc(NC(=O)c2cccc(S(=O)(=O)N3CCCCC3)c2)c1	100
O=C(NCCSc1nnnn1-c1ccccc1)C(c1ccccc1)c1ccccc1	97
CC1=NN(C(=O)CSc2nc3ccccc3s2)C(C)(O)C1 (stereo not drawn)	99
CN(Cc1ccccc1)C(=O)CCc1nc2cccnc2n1-c1ccccc1	101
COC(=O)c1cc2oc(C)cc2n1CC(=O)Cc1ccc(OC)cc1OC	100
Cc1cccc(-n2cc(-c3ccccc3)c3c(=O)[nH]cnc32)c1	109
CCOC(=O)c1sc2ccc(S(=O)(=O)N3CCOCC3)cc2c1N	105
CSc1ncc(C(=O)NCCc2ccccc2)c(C)n1	100
CC(C)C(=O)N(C)C1(c2ccccc2Cl)CCCCC1=O (stereo not drawn)	90
O=C(CSc1ncnc2ccccc12)NCCc1ccccc1	86
CCc1ccc(N=Cc2c(O)ccc3ccccc23)cc1	93
CN1CCN(C(=O)c2ccc(N)cc2)CC1	93
COC(CNC(=O)Cc1ccc(-n2c(=O)[nH]c3ccsc3c2=O)cc1)OC	102
Cc1nc2sc(-c3ccccc3)cc2c(=O)n1-n1cccc1	94
O=C(O)C1C2C=CC3(CN(C/C=C/c4ccccc4)C(=O)C13)O2 (stereo not drawn)	94
CC(C)Cc1ccc(/C=C/C(=O)N2CCOCC2)cc1	99
CCOC(=O)C(C)Oc1ccc2c3c(c(=O)oc2c1)CCC3 (stereo not drawn)	100
O=C(CCNS(=O)(=O)c1ccccc1)Nc1ccc(Br)cc1C(=O)c1ccccc1	96
COc1c(OC)c2occc2c2oc(=O)ccc12	100
CN(C)/C=C/c1nc(C(F)(F)F)c(C#N)s1	103
CC(C)c1ccc(S(=O)(=O)NC2CC(C)(C)NC(C)(C)C2)cc1	100
N#CC1=C(N)C2=C(N3CCOCC3)CCCC2C1(C#N)C#N (stereo not drawn)	94
Cn1c2ccccc2c2cnn(CC(=O)NCc3ccc4c(c3)OCO4)c(=O)c21	89
CCc1ccc(NC(=O)Nc2ccc3c(c2)N(CC)C(=O)c2ccccc2S3)cc1	101
COc1ccc(C2C(C(=O)Nc3ccc(C)c(F)c3)CC(=O)N2c2ccc(OC)cc2)cc1 (stereo not drawn)	94
O=C(CSCc1ccccc1)Nc1ccc(-c2nc3cccnc3s2)cc1	91
O=C(CSc1nnc(-c2ccncc2)o1)NCc1ccccc1	102
CCn1c(COc2cccc3cccnc23)nnc1SCC(=O)OC	103
N#Cc1c2c(c(-c3ccccc3)[nH]c1=O)CCCC2	93
Cc1ccc(S(=O)(=O)NCc2ccc3c(c2)cc(C)n3C)cc1	101
Clc1ccc2oc(-c3ccccc3)cc(=NCCN3CCOCC3)c2c1	96
CCn1cc(C(=O)N(Cc2ccc(N(C)C)cc2)Cc2ccco2)c(=O)c2ccc(C)nc21	102
O=C(Nc1sc2c(c1C(=O)N1CCOCC1)CCCCC2)c1ccccc1	93
Cc1cc(Nc2cccc(C(F)(F)F)c2)nc2ccc(NC(=O)Cc3cccs3)cc12	99
CC1CC(N(C(=O)C(C)C)c2ccccc2)c2ccccc2N1 (stereo not drawn)	114
O=C(Nc1nnc(-c2ccccc2)o1)c1sc2ccccc2c1Cl	83
CC(C)C(C(=O)OC1CSCC1NC(=O)c1ccccc1)N1C(=O)c2ccccc2C1=O (stereo not drawn)	92
COc1ccc2nc(NCc3ccccc3)[nH]c2c1	103
COc1ccccc1/C=C1\SC(=O)N(c2ccccc2)C1=O	100
On1c(-c2cccc(C(F)(F)F)c2)nc2ncccc21	84
O=c1[nH]cc(F)c(=O)[nH]1	90
COc1ccc(-c2noc(CN(C(=O)CN3C(=O)c4ccccc4C3=O)C(C)C)n2)cc1	89
Cc1c(Br)sc2sc(-c3ccnc(SCC(=O)NC(C)C)n3)c(C)c12	97
O=C(O)CSCc1ccc(F)cc1	92

The list continues:
SMILES	Vaccinia pol inh
O=C1C2C3C=CC(C3)C2C(=O)N1Cc1cccnc1 (stereo not drawn)	104
CCC12CN3CC(CC)(CN(C1)C3c1c(C)[nH]c3ccccc13)C2=O (stereo not drawn)	100
O=C(CC1(O)C(=O)c2ccccc2C1=O)c1ccccc1	104
O=C(CCC(=O)n1ncc2ccccc21)N1CCCCC1	100
O=C1CSC(c2ccccc2)c2c(-c3ccccc3)nn(-c3ccccc3)c2N1 (stereo not drawn)	100
CC(C)(C)c1ccc(C(=O)Nc2ccc(NC(=O)c3ccccc3F)cc2)cc1	100
O=c1cc(CSc2cccc3cccnc23)c2ccc(O)cc2o1	96
CCN1CCN(Cc2ccc3cccnc3c2O)CC1	101
CC1(C)OC(=O)N(CCCC(=O)O)C1(C)O (stereo not drawn)	100
CC(C)CN(CC(C)C)C(=O)COc1ccc(C(C)(C)C)cc1	100
Cc1ccc(S(=O)(=O)NCC(O)Cn2c3ccccc3c3ccccc32)cc1 (stereo not drawn)	100
FC(F)(F)c1ccc(-c2csc(-c3ccc(-c4csnn4)cc3)n2)cc1	99
O=C(/C=C/c1ccc(Br)o1)NCCCN1CCOCC1	78
CC(=O)NC(C)c1cc(C(C)(C)C)c(O)c(C(C)(C)C)c1 (stereo not drawn)	98
CCOC(=O)C(C)N1C(=O)S/C(=C/c2ccc(-c3ccccc3C(=O)O)o2)C1=O (stereo not drawn)	99
FC(F)(F)c1cccc(N2CCN(C(=S)Nc3ccccc3)CC2)c1	100
Cc1nn(C)c(Cl)c1S(=O)(=O)N(C)C	99
COC(=O)C1=C(N)C(=O)N(c2ccc(C(=O)OC)cc2)C1	97
N#Cc1ccc(OCC(=O)NC2CCCC2)cc1	94
CSc1ccc(Cl)c(C(=O)OCC(=O)N2CCc3ccccc32)c1	99
COc1ccc(CC(O)CN2CCOCC2)cc1 (stereo not drawn)	100
O=C(COc1cccc(Oc2ccccc2)c1)N1CCN(c2ccccc2)CC1	107
COC1=CC(=C2C=CC(=[N+](C)C)C=C2)Oc2ccccc21	99
CC1CC(C)CN(C(=O)CSc2nnc(Cc3ccccc3)o2)C1 (stereo not drawn)	101
OCCNC(=S)Nc1ccccc1	100
COc1ccc(CCNC(=O)COc2ccc3c(=O)c(-c4ccccc4)coc3c2)cc1OC	100
Cc1nc(-c2c(C(F)(F)F)noc2-c2ccc(O)cc2O)cs1	100
Cc1csc(CC(N)=O)n1	106
COc1ccc2nc3sc(C(=O)N(C)c4cccc(C(F)(F)F)c4)cc3cc2c1	103
O=C(NCC1CN(Cc2ccccc2)CCO1)c1ccc(N2CCOCC2)nc1 (stereo not drawn)	97
NNC(=O)CNC(=O)c1ccccc1	100
Cc1ccc(NC(=S)NC(C)(C)C)c(C)c1	105
O=C(COC(=O)c1ccccc1OCc1ccccc1)c1ccc(F)cc1	108
O=C(Nc1c(-c2cccs2)nc2ccccn12)c1c(F)cccc1F	102
N#CC1=C(N)OC(C2CC2)=C(C#N)C1c1ccccc1Cl (stereo not drawn)	96
CC(=O)NCCc1nc2ccccc2n1Cc1ccccc1	80
COc1ccccc1CNC(=S)N(C)C	99
S=C(Nc1ccc(Cl)cc1Cl)NC(Cn1ccnc1)c1ccccc1 (stereo not drawn)	96
CCOC(=O)COc1ccc(C23CC4CC(CC(C4)C2)C3)cc1	98
CC1SCC(=O)N(c2cccc(C(F)(F)F)c2)C1=O (stereo not drawn)	83
O=C(COc1cccc(OCC(=O)Nc2ccccn2)c1)Nc1ccccn1	96
O=C(O)COCC(=O)NC1CCN(Cc2c(F)cccc2Cl)CC1	88
Cc1cc(Cl)nc(NN)c1C#N	100
Cc1cc(C2C(=O)CC(=O)CC2c2ccccc2)on1 (stereo not drawn)	97
CCOC(=O)c1c(CN2CCCCC2)n(-c2ccccc2)c2cc(Br)c(OC)cc12	99
